From PubChem
NPYLR7 agonist – agonists of mosquito NPYLR7 receptor, primary screen, cell-based, Aedes aegypti, calcium fluorescence, mosquito biting behavior | Aedes aegypti neuropeptide Y-like receptor 7 (NPYLR7) | HEK293T NPYLR7/Galpha15, GCaMP6s calcium fluorescence | AID 1259423, 2018 | activation, % at 10 µM | 270,000 compounds, 0.15% hits; in the data active = activation above about 40%;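 also: 0% = vehicle and 100% = reference agonist at the receptor; some compounds past the cut are filed as inactive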
NPYLR7 agonist max-min – also measured in NPYLR7 agonist; calls as there; activation, %; measured here: Max-Min RFU normalised activation; some inactives read as strong as hits;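 span of the calcium signal over five minutes; 0% = vehicle and 100% = native peptide agonist; compound fluorescence can raise it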
Numbers without * were called inactive; & = joins results of further samples. These rows are one share of the data (hit frequency here may not be typical).

Compound	NPYLR7 agonist	NPYLR7 agonist max-min
COCCN(Cc1nc2cc(Cl)ccc2o1)C(=O)c1ccco1	0	-7
CCS(=O)(=O)c1ncc(CN2CCN(c3cnccn3)CC2)n1CCc1ccccc1	1	-1
O=C(NCc1ncn[nH]1)C1CC1c1ccc(Cl)cc1 (stereo not drawn)	-3	-5
COc1cc(OC)cc(C2NC(=O)N(C)C3=C2C(=O)N(Cc2ccc4c(c2)OCO4)C3)c1 (stereo not drawn)	14	8
CC(NC(=O)C1CC1C)c1cccc(Br)c1 (stereo not drawn)	-1	-3
CC(C)Cc1ccc(CN2CCCC(NC(=O)Cc3cnc4ncnn4c3)C2)cc1 (stereo not drawn)	8	4
CSC1=N/C(=C\c2cccc(Br)c2)C(=O)S1	2	0
c1ccc2ncc(Cn3ccnc3-c3ccc(-c4ccn[nH]4)o3)cc2c1	-1	-8
CN(c1ccc2c(-c3ccccn3)noc2n1)c1ccc(F)cc1F	0	-2
O=C(C1CC2(CCNCC2)CN1)N(CCN1CCOCC1)Cc1ccco1 (stereo not drawn)	24	8
O=C(COc1ccc(Cl)cc1)Nc1ncnc2sccc12	-8	-10
COc1cccc(Cc2nsc(N3CCCN(C(=O)c4ccc(Cl)cc4)CC3)n2)c1	15	10
CC(C)CNC(=O)C1(C)CCN1C(=O)C/C=C/c1ccccc1 (stereo not drawn)	-4	-9
N#Cc1ccc(CON=Cc2ccccc2)cc1	6	4
COC(=O)c1ccccc1NC(=O)N1CCc2ccccc2C1c1ccc(F)cc1 (stereo not drawn)	-3	4

Compound	NPYLR7 agonist	NPYLR7 agonist max-min
CN(C)c1ccc(/C=C2/CCCCC2=O)cc1	10	8
CN(C)CCn1c(=O)oc2ccc(NC(=O)COc3ccc(F)cc3)cc21	1	11
CCN(CC)S(=O)(=O)c1cc(N2C(=O)C(C)NC2=S)ccc1Cl (stereo not drawn)	4	4
COc1ccc(-c2csc(C(NC(C)=O)c3ccc(F)c(F)c3)n2)cn1 (stereo not drawn)	-1	-1
CCCCN(CC(=O)NCC(=O)Nc1ccc(OC)cc1)C(=O)c1ccccc1Cl	2	-3
CCN(CC)CCNC(=O)Cn1c(-c2ccc3c(c2)c2ccccc2n3CC)nc(C)c1C	8	6
CC(=O)Nc1ccc(S(=O)(=O)NCc2nnnn2-c2ccc(F)cc2)cc1	8	5
Cc1nn(-c2ccc(N3CCN(C(=O)C4CCCC4)CC3)nn2)c(C)c1C	-6	-11
c1ccc(Cn2cc(Cn3ccnc3-c3ccncc3)cn2)cc1	3	-1
C=CCN(Cc1cccnc1)C(=O)CC(=O)Nc1cc(C)cc(C)c1	-1	-6
CCNC(=O)C1(C)CCN1C(=O)CC(c1ccccc1)c1ccccc1 (stereo not drawn)	11	9
COCc1ccc(C(=O)NCc2nc(-c3cccc(NC(=O)C4CCCN(C)C4)c3)oc2C)s1 (stereo not drawn)	0	0
Cc1ccc(NC(=O)CSc2c(C)c(C)cc(C)c2C)cc1S(N)(=O)=O	1	1
CCOC(=O)c1cc(-c2ccc(N3CCN(C(=O)C(OC(C)=O)c4ccccc4)CC3)cc2)n(-c2ccccc2OC)n1 (stereo not drawn)	20	6
Cc1ccc(C(=O)Cn2nc(-c3ccco3)c3sc(N4CCCCC4)nc3c2=O)c(C)c1	-5	-9

Compound	NPYLR7 agonist	NPYLR7 agonist max-min
COc1cc(CN2CCc3c(cc(-c4ccccc4OC)c(=O)n3Cc3ccccc3)C2)ccc1O	-5	-7
O=C(NCc1ccc2c(c1)OCO2)N1CCN(CC(F)(F)F)CC1	-2	-3
COc1ccc(C(=O)NCCCn2cccn2)cc1OC1CCN(C(C)=O)CC1	4&2	-1&1
Cc1noc(C)c1CCC(=O)Nc1ccc2oc3ccccc3c2c1	5	4
Cc1c(CN2CCCC(Nc3cccc(F)c3)C2)cnn1C (stereo not drawn)	5	4
CCc1cccc2c(C(CC(=O)NCc3ccc(F)cc3)c3ccc(Cl)cc3)c[nH]c12 (stereo not drawn)	5	18
O=C(NCc1ccco1)c1coc(CN(Cc2cccc(F)c2)CC2CC2)n1	9	14
Cc1ccn2cc(-c3ccc(F)cc3)nc2c1	-1&4	-1&3
Cc1ccc(F)cc1S(=O)(=O)N1CCC(CCc2ccc(-c3ccccc3)cc2)CC1	4	14
Cc1cc(C)n(-c2cc(NCCNC(=O)Nc3cccc(Cl)c3)nc(C)n2)n1	-5	-8
CC(C)c1ccc(CC(=O)N2CCC2(C)C(=O)Nc2cccc(C#N)c2)cc1 (stereo not drawn)	-2	-6
Cc1ccccc1Cn1c(C)c(C(=O)NCc2ccc(C#N)cc2)sc1=O	6	2
OCc1ccc(O[C@@H]2O[C@H](CO)[C@@H](O)[C@H](O)[C@H]2O)cc1	0	3
Cc1cn2c3c(=O)n(C)c(=O)n(C)c3nc2n1Cc1ccc(Br)cc1	1	7
COc1ccc(CN2CCCC(COc3ccc(C)cc3)C2)cc1CO (stereo not drawn)	-3	-7

Compound	NPYLR7 agonist	NPYLR7 agonist max-min
CCCN(CCS(C)(=O)=O)C1CC(OCC)C1(C)C (stereo not drawn)	-15	-15
CC1(C(=O)NCc2ccc(Cl)cc2)CCN1C(=O)C/C=C/c1ccccc1 (stereo not drawn)	-3	-8
Cc1csc(N=CN(C)C)n1	-1	-5
CC(NC(=O)c1csc(-c2ccccc2)n1)c1ccc(S(C)(=O)=O)cc1 (stereo not drawn)	0	21
COc1cccc(CN(C)Cc2nc3scc(-c4ccc(F)cc4)c3c(=O)[nH]2)c1OC	34	22
COc1ccc(CC2CCN(C(=O)c3c(C)noc3-c3ccc(C(C)(C)C)cc3)CC2)cc1	-1	7
O=C(O)c1sccc1S(=O)(=O)NC1CCSc2c(F)cccc21 (stereo not drawn)	1	-1
O=C(O)C1CCN(S(=O)(=O)c2cccs2)CC1	14&0	14&-2
COc1ccc(-c2[nH]ncc2CNC(=O)Cc2cc(C)no2)cc1	1	2
Cc1nc2cc(F)c(F)cc2n1Cc1csc(C(C)C)n1	-1	-8
O=C(CCc1ccccc1)NC1CCN(c2ccccc2C(=O)N2CCN(C3CCCCCC3)CC2)CC1	19	31
Cc1ccc(C)c(Cn2c(C)c(C)n3c4c(=O)n(C)c(=O)n(C)c4nc23)c1	24	14
O=C(Nc1ccc2c(c1)OCO2)Nc1ccc2c(c1)OCO2	0	4
CC1CN(C(=O)CSc2cn(CC(=O)N3CCCC3)c3ccccc23)CC(C)O1 (stereo not drawn)	-5	-10
CC(C)NC(=O)COC(=O)c1nc(Br)cnc1N	2	-2

Compound	NPYLR7 agonist	NPYLR7 agonist max-min
Cc1cc2cccc(C(=O)NCC3(O)CCCNCC3)c2o1 (stereo not drawn)	14	10
COc1cccc(Cc2nsc(N3CCCN(C(=O)Nc4ccc(F)cc4F)CC3)n2)c1	-3	11
COc1cccc(-c2noc(-c3cc(C(C)C)[nH]n3)n2)c1OC	4	4
COc1cccc(Cc2nc3c(c(=O)[nH]2)CN(C(=O)Nc2ccc(C)cc2C)CC3)c1	18	18
C=CCN1C=CC(=CC=C(C#N)C#N)C=C1	72*	65*
C=CCCC(O)CN(Cc1ccccc1C)CC1CCCO1 (stereo not drawn)	16	17
COc1cccc(-c2cccc(-c3ccc(NC(=O)COCc4ccccc4)cc3)n2)c1	35	40
CCC(C)Oc1cccc(NC(=O)N2CCC(n3cncn3)CC2)c1 (stereo not drawn)	-4	-4
COCCN1CC(O)CN(C(=O)c2cccs2)CC1=O (stereo not drawn)	0	3
Cc1cc(C)cc(N2CCCn3c2nc2c3c(=O)n(CC(C)C)c(=O)n2C)c1	2	-1
CCN(Cc1ccccc1F)C(=O)c1csc(C(C)=O)c1	-1	2
COc1ccc(C(NCc2ccc(S(C)=O)cc2)C2CC2)cc1 (stereo not drawn)	1	0
CNS(=O)(=O)c1cc(-c2nnc(Nc3ccc(C)cc3C)c3ccccc23)ccc1C	-19	-23
CC(c1ccccc1)N1C(=O)c2ccccc2NC1c1ccc(C#N)cc1 (stereo not drawn)	0	0
O=C(NCC1(c2ccccc2)CCOCC1)c1ccc2nc(C3CC3)oc2c1	7	6

smiles,NPYLR7 agonist,NPYLR7 agonist max-min
O=C(COc1ccc(-n2ccnc2)cc1)NC12CC3CC(CC(C3)C1)C2,-22,-23
CCOC(=O)C1(Cc2cccc(OC)c2)CCN(C(C)CCn2cccn2)CC1 (stereo not drawn),-3,-6
CCCCn1c(SCC(N)=O)nnc2c3ccccc3nc1-2,3,23
CCc1c2c(=O)n(-c3ccc(OC(F)(F)F)cc3)[nH]c2cc(=O)n1CCCN1CCOCC1,15,13
Cc1cn(CCNS(=O)(=O)NCc2ccccc2)nn1,7,6
CC(C)C(NC(=O)C1CCOCC1)c1ccc(Cl)cc1 (stereo not drawn),2,0
COCCN(CC(=O)N1CCc2sccc2C1c1ccccc1)C(=O)/C=C/c1ccc([N+](=O)[O-])cc1 (stereo not drawn),17,13
COC(C)C(C(=O)OCC1=CCN2CC[C@H](O)[C@@H]12)C(C)C (stereo partly drawn),4,3
c1cnc2nc(-c3ccsc3)c(Nc3ccc4c(c3)OCCO4)n2c1,-2,-3
O=C(Nc1cc(=O)n(-c2ccccc2)[nH]1)C(F)(F)F,-1,0
COc1ccccc1C=C1SC(=S)N(Cc2ccco2)C1=O,11,6
CC1CC(=O)Nc2c1c(NC(=O)c1ccc3c(c1)OCO3)nn2C (stereo not drawn),-15,-21
COc1ccc(-c2cc(C(=O)NCCN3CCOCC3)n3nc(-c4ccccc4)cc3n2)cc1,16,17
COC(=O)C1=C(C(=O)OC)SC(=C2C(=S)C(C)(C)N(C(=O)C3CC3)c3cc(C)ccc32)S1,-6,-13
CC(C)CCn1c(SCCc2ccccc2)nc2c1c(=O)[nH]c(=O)n2C,0,10
COc1ccc(C)cc1N1C(=O)CSC1c1ccccc1NC(=O)c1ccc(C)c([N+](=O)[O-])c1 (stereo not drawn),-5,1
COc1ccc(-c2cncc(N(C)C)n2)cn1,0,-5
Cc1csc(-c2ccc(C(=O)C(C#N)C(=O)N3CCCC3)cc2)n1 (stereo not drawn),1,-2
COc1cccc(CSc2nnc(CNC(=O)Nc3ccccc3OC)n2-c2ccc(Cl)cc2Cl)c1,-3,8
CCN(CC)C(=O)C(c1ccccc1)N1CCN(CCO)CC1 (stereo not drawn),2,1
O=C1c2ccc(Br)cc2C(=O)N1CNc1ccc(Br)cc1,4,6
Cc1cccn2c(=O)nc(SCC(=O)N3CCC(C)CC3)nc12,5,5
Cn1cc(C(=O)NCC2CCN(C(=O)c3cc4c(cc3O)CCCC4)CC2)cn1,4,2
CCOC(=O)COc1cccc2c(C)c(CCN(CC)CC)c(=O)oc12,-1,-1
CCn1ccnc1CNc1cnn(C)c1,12,4
O=C(Cc1cccnc1)N1CCCC(Nc2ccc(F)c(F)c2)C1 (stereo not drawn),0,-3
CCOC(=O)CSCC(=O)NC(=O)c1cccn1C,4,-1
Cc1ccc(C2=NN(C3CCS(=O)(=O)C3)C(c3cccs3)C2)o1 (stereo not drawn),-2,-6
C=CCN1CC(c2nc3ccccc3n2Cc2ccc(Cl)cc2Cl)CC1=O (stereo not drawn),1,3
CCCN1CCC(N(C)C(=O)C2C(C=C(C)C)C2(C)C)CC1 (stereo not drawn),1,-1

smiles,NPYLR7 agonist,NPYLR7 agonist max-min
COC[C@H](C)NC(=O)Cc1sc(C)nc1C,1,-2
Cc1cccn2c(=O)cc(CSc3nnc(-c4cccs4)n3C3CC3)nc12,-1,-2
O=C(c1ccc(Cl)cc1)N(Cc1nccn1Cc1ccc(F)c(F)c1)CC1CC1,18,18
O=C(c1cc2n(n1)CCN(Cc1ccc(Sc3ncn[nH]3)o1)C2)N1CCCC1,-2,-7
